Screening data deposited in PubChem by Southern Research Institute.
Mtb growth – Confirmatory growth inhibition assay against Mycobacterium tuberculosis H37Rv, potency (AID 1949); most inactive calls were filed without a number and no value below 0 was filed; inhibition, % at 10 µg/mL, or IC50 in µg/mL where a hit was titrated; 1.6% of 100,000 active;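 active means confirmed in a dose series; inconclusive means about 50% or more but not retested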;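 further: bacteria grown 7 days with compound before Alamar blue readout; 0% = untreated bacteria and 100% = reference antibiotic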
* marks the source's active call; other numbers are inactive results; i = inactive; ? = inconclusive.

mol | Mtb growth
COc1ccc(C2C(C(=O)c3ccco3)=C(O)C(=O)N2Cc2cccnc2)cc1 (stereo unspecified) | i
CCC(=O)c1ccccc1OCCNC | i
CCCC(C)NS(=O)(=O)c1ccc(OC)c(Br)c1 (stereo unspecified) | i
Cn1nnc2cc(C(=O)Nc3nncs3)ccc21 | i
O=c1c2ccccc2nc(Cc2cccc([N+](=O)[O-])c2)n1-c1c(Cl)cccc1Cl | i
CC(C)Cn1c(CCC(=O)O)ccc1-c1ccccc1 | i
COC(=O)CC1NC2CCCCC2NC1=O (stereo unspecified) | i
CCCc1cc(=O)oc2cc(Oc3ccc(C(F)(F)F)cc3[N+](=O)[O-])c(Cl)cc12 | i
CCOC(=O)c1ccccc1NC(=O)C(C)N1C(=O)c2cccc3cccc1c23 (stereo unspecified) | 1%
CN1CCN(C(=O)c2ccccc2N)CC1 | i
CN(CC(=O)O/N=C(\N)c1ccccc1)S(=O)(=O)c1ccccc1 | i
Cc1ccc(-c2nnc(SCC(=O)Nc3cc(Cl)ccc3Cl)n2C)cc1 | i
O=C(CSCc1c(F)cccc1Cl)NNC(=S)NCc1ccco1 | i
COc1ccc(S(=O)(=O)N2CCC(C(=O)N3CCC(Cc4ccccc4)CC3)CC2)cc1OC | 1%
Cn1cnnc1SCC(=O)c1cc2ccccc2oc1=O | i
CCOc1ccc(C(=O)Nc2sc(C(=O)N(CC)CC)c(C)c2C(=O)OC(C)C)cc1 | 2%
CC(C)NC(=O)Cc1ccc(Br)cc1 | i
COC(=O)c1cc(C)sc1NC(=S)N1CCCc2ccccc21 | 10%
S=C(NCc1ccc(Cl)c(Cl)c1)Nc1ccc2c(c1)OCO2 | i
Cc1cc(OCC(O)CN2C(C)CCCC2C)cc(C)c1Cl (stereo unspecified) | 2%
C=CCn1c(COc2c(C)cccc2C)nnc1SCC(=O)Nc1ccc(C)c(Cl)c1 | i
C=CCc1cc(Cl)ccc1OCCCN1CCN(C)CC1 | i
CCOC(=O)CN(C#N)c1nc(C)cc(C)n1 | 1%
COC(=O)COc1cc(C)nc(SC)n1 | 1%
NC(=O)c1nnn(Cc2ccccc2)c1N | i
CS(=O)(=O)N(Cc1ccccc1)c1ccc(C(=O)N2CCC(Cc3ccccc3)CC2)cc1 | i
O=C(Nc1ccc(S(=O)(=O)N2CCOCC2)cc1)c1ccc2ccccc2n1 | 4%
CC(C(=O)Nc1nc2ccc(S(N)(=O)=O)cc2s1)N1C(=O)c2ccccc2C1=O (stereo unspecified) | i
Cc1ccc(OCCCC(=O)Nc2ccc(C(N)=O)cc2)c(C)c1 | i
COC(=O)c1c(C)oc2cc(Br)c(OCc3cccc([N+](=O)[O-])c3)cc12 | 0%
Cc1c(C(=O)OCc2ccccc2)sc2nc[nH]c(=O)c12 | i
Cc1ccc([N+](=O)[O-])cc1NC(=O)c1cc(-c2ccc3c(c2)OCO3)nc2ccccc12 | i
Cc1ccc(NC(=O)C(=O)NCCc2ccc(F)cc2)cc1C | 11%
COc1ccc(Cl)cc1S(=O)(=O)Nc1ccccc1C | 4%
CCc1ccc2oc(C(=O)Nc3ccccc3F)c(C)c2c1 | i
CC1=C(C(=O)Nc2cc(C)cc(C)c2)C(c2ccc([N+](=O)[O-])cc2)NC(=S)N1 (stereo unspecified) | i
CC(=O)Nc1ccc(C(=O)Nc2ccc(C)cn2)cc1 | i
O=C(CNC(=O)c1ccc(Cl)cc1Cl)Nc1ccc(F)cc1 | i
O=C(NCc1ccncc1)c1cccc(COc2ccc3c(c2)CCC3)c1 | 2%
CN(Cc1ccccc1)C(=O)C1CCCN(Cc2cccc3ccccc23)C1 (stereo unspecified) | i
N#CCCN(CCC#N)C(=O)c1ccco1 | i
COc1ccc(C2(CNC(=O)c3ccc(NC(=O)c4ccccc4)cc3)CCOCC2)cc1 | i
COc1ccc(NC(=O)c2ccco2)c(NC(=O)CSc2ccc(Cl)cc2)c1 | i
Ic1ccc(CSc2nnnn2-c2ccccc2)cc1 | i
CCc1ccc(NC(=O)C(=O)NCCN2CCN(Cc3c(F)cccc3Cl)CC2)cc1 | i
O=C(O)C1C2C=CC(C2)C1C(=O)Nc1cccc(Cl)c1 (stereo unspecified) | i
COC(=O)c1ccc(COc2ccc3c(=O)c(-c4ccccc4OC)c(C)oc3c2)cc1 | ?
CCCn1c(SCC(=O)Nc2ccc(Cl)c(Cl)c2)nnc1-c1ccccc1 | 1%
O=C(Nc1ccc(F)cc1F)C1CCN(S(=O)(=O)c2ccccc2)CC1 | i
COc1ccc(S(=O)(=O)N2CCC(C(=O)Nc3ccccc3F)CC2)cc1 | i
Cc1nc(CSc2cc(C)c3ccccc3n2)cs1 | i
O=C(OCc1c(Cl)cccc1Cl)c1cnccn1 | ?
O=C(CSc1nc2ccccc2n1-c1ccccc1)Nc1ccc2c(c1)OCCO2 | i
COc1ccc(NC(=O)c2cccc(OC)c2OC)cc1 | i
Cc1ccccc1CN(c1ccc(C(=O)N2CCC(C)CC2)cc1)S(C)(=O)=O | 1%
COc1ccc(S(=O)(=O)N(CC(=O)NCc2ccc3c(c2)OCO3)Cc2ccccc2)cc1C | 1%

(cont.)
mol | Mtb growth
CCOc1ccccc1CN1CCC(N2CCOCC2)CC1 | i
Cc1cccc2c(C(=O)Nc3nnc(C4CC4)s3)cc(-c3cccnc3)nc12 | 3%
O=S(=O)(Nc1ccc(S(=O)(=O)Nc2cc(Cl)cc(Cl)c2)cc1)c1ccccc1 | i
Cn1c(SCC(=O)Nc2ccccc2)nnc1-c1ccco1 | i
Cc1ccc(S(=O)(=O)Nc2ccccc2C(=O)NCc2cccnc2)cc1 | i
CCCC(C)NC(=O)CSCc1ccc(OC)cc1 (stereo unspecified) | i
CCCC(=O)N1CCN(c2ccc(C(=O)c3ccc(OC)c(Br)c3)cc2F)CC1 | i
CC(=O)c1ccc(NC(=O)CSc2nnc(NC(=O)c3cccc(C)c3)s2)cc1 | i
O=C(C1CCCN(Cc2cccc(F)c2)C1)N1CCCCCC1 (stereo unspecified) | i
CC1=C(C(=O)Nc2ccc(C)cc2C)C(c2ccc(C)o2)NC(=S)N1 (stereo unspecified) | i
CCCC(=O)Nc1ccc2nn(-c3ccc(OC)cc3)nc2c1 | i
Cn1c(SCC(=O)NC23CC4CC(CC(C4)C2)C3)nnc1-c1cccc(Cl)c1 | i
COc1ccc(OC)c(-n2c(-c3cccs3)n[nH]c2=S)c1 | i
O=C(CSc1nnc(-c2ccco2)c(-c2ccco2)n1)NCc1ccccc1 | 2%
COC(=O)c1ccccc1NC(=O)CN1CCCCCC1 | i
O=C1CC(N2CCC(c3nc4ccccc4[nH]3)CC2)C(=O)N1c1ccc(F)cc1 (stereo unspecified) | i
COc1ccc(Cl)cc1Nc1ncnc2sc3c(c12)CCC(C)C3 (stereo unspecified) | i
CC(=O)c1ccc2c(c1)c1ccccc1n2CC(C)C | 6%
CC(=O)c1cccc(NC(=O)c2cccc(Cl)c2Cl)c1 | 5%
COC(=O)COc1ccc(Br)cc1/C=C(\C#N)c1nc2ccccc2[nH]1 | i
C=CCN(c1ccc(C(N)=O)cc1)S(C)(=O)=O | i
S=C(Nc1ccccc1)Nc1ccc2nc(-c3ccco3)c(-c3ccco3)nc2c1 | i
CCOc1ccccc1NC(=S)NCCCCc1ccccc1 | i
Cc1ccc(NC(=S)N2CCN(c3ccccc3)CC2)c(C)c1 | i
CCOc1ccccc1OC(=O)c1ccc([N+](=O)[O-])cc1 | 11%
O=C(Nc1cccc(Oc2ccc3c(c2)C(=O)NC3=O)c1)c1cccs1 | i
O=C(O)CC(NS(=O)(=O)c1cccs1)c1ccccc1 (stereo unspecified) | i
CC(C)CNC(=O)c1cccc(NC(=O)COc2ccc3ccccc3c2)c1 | i
O=C(c1ccccc1)n1nc(-c2ccco2)nc1SCc1ccccc1 | i
O=C(CSc1nnc(-c2cccc(Br)c2)o1)Nc1ccccc1C(F)(F)F | i
O=C(Nc1ccc(I)cc1C(=O)NCCc1ccccc1)c1ccco1 | i
COc1cc(C2C(C(=O)c3cccs3)=C(O)C(=O)N2Cc2ccco2)cc(OC)c1OC (stereo unspecified) | i
CCCCC(=O)Nc1cccc(NC(=S)NC(=O)c2ccccc2I)c1 | i
CC(C)c1ccc(NC(=O)c2ccc(CN3CCOCC3)cc2)cc1 | i
COc1cc([N+](=O)[O-])ccc1NC(=S)Nc1ccc(Oc2ccccc2)cc1 | 21%
COc1ccc(NC(=O)c2ccco2)cc1NC(=O)c1ccccc1[N+](=O)[O-] | i
Cn1c(CCc2ccccc2)nnc1SCC(=O)Nc1cccc(Cl)c1Cl | i
CSc1ccccc1NC(=S)Nc1ccc(Br)cc1Cl | i
OCc1cc(Cl)c(OCc2cccc(F)c2)c(Cl)c1 | 1%
Cc1ccc(NC(=O)c2sc3nc4c(cc3c2N)CCCCC4)cc1 | i
COc1ccc(-n2nc3ccc(NC(=O)COc4ccccc4C)cc3n2)cc1 | i
Clc1cc(Cl)cc(Nc2ncnc3sc4c(c23)CCCC4)c1 | i
COc1ccc(S(=O)(=O)N(CC(=O)NCc2ccccc2C)c2ccccc2OC)cc1 | i
CCOC(=O)C1CCN(S(=O)(=O)c2cc(F)ccc2OC)CC1 | i
Cc1cc(C)cc(Oc2c(C(F)(F)F)oc3cc(OCC(=O)O)ccc3c2=O)c1 | i
Cc1nc2nc(-c3ccccc3)[nH]n2c(=O)c1C | ?
C=CCn1c(SCC(=O)Nc2nccs2)nc2ccccc2c1=O | i
CCCCCNC(=O)c1ccc(CN2CCc3ccccc3C2)cc1 | 2%
Cc1cc(OCCCn2cnc3ccccc3c2=O)ccc1C(C)C | 8%
COC(=O)COc1ccc(NC(=O)COc2ccccc2C)cc1 | i
CC(NC(=O)C(C)N1CCCCC1)c1ccccc1 (stereo unspecified) | i
CCOC(=O)c1ccc(NC(=O)CSc2nnc(Cc3ccccc3)n2CC)cc1 | i
COc1ccccc1OCc1nc(-c2ccncc2)no1 | i
COc1c(C)cccc1C(=O)N1CCN(c2ccc([N+](=O)[O-])c(N3CCOCC3)c2)CC1 | i
Cn1c(COc2ccccc2Cl)nnc1SCC(=O)Nc1nc(-c2ccccc2)cs1 | 0%
Cc1cc(OCC(=O)N(C)C)c2c(C)cc(=O)oc2c1 | i

Next part.
mol | Mtb growth
CN(C)c1cccc(C(=O)Nc2ccc(Br)cc2)c1 | i
CC(C)CNC(=S)NNC(=O)C1CCN(Cc2ccc(F)cc2Cl)CC1 | i
COC(=O)NNC(=O)N1c2ccccc2Sc2ccccc21 | i
CCN(CC)S(=O)(=O)c1cccc(C(=O)Nc2ccc(NC(=O)c3ccccc3)cc2)c1 | 1%
CCn1ncc(NC(=O)Nc2ccc(Cl)cc2Cl)c1C(N)=O | i
Cc1ccccc1C(=O)NC(=S)Nc1ccc(C(=O)O)cc1 | i
O=C(Nc1ccc(Br)cc1)C1CCN(S(=O)(=O)c2ccc(Cl)cc2)CC1 | 3%
COc1cc(NC(=O)c2ccc3c(c2)C(=O)N(C)C3=O)c(C(=O)O)cc1OC | i
CCN(CC)C(=O)c1sc(NC(=O)Nc2ccccc2)c(C(=O)OC)c1C | i
Clc1cc(Br)ccc1OCCN1CCOCC1 | 5%
COc1cc(C)ccc1OCCOCCOc1ccccc1C=O | i
O=C1CC(c2ccc(F)cc2)c2cc3c(cc2N1)OCCO3 (stereo unspecified) | i
O=C(O)CC(C(=O)O)c1ccc(Cl)cc1Cl (stereo unspecified) | i
CCn1ncc(Cl)c1C(=O)Nc1cccc(Cl)c1Cl | i
Cc1ccc([N+](=O)[O-])cc1NC(=O)Cc1cccs1 | i
COc1ccc2c(c1)c(=O)oc1cc3oc(C)c(C)c3cc12 | i
Cc1ccc(C(=O)N2CCOCC2)c(F)c1F | i
Cc1cc(Cl)c(Cl)cc1S(=O)(=O)N1CCC(C(N)=O)CC1 | i
CC(C)CNC(=O)c1ccccc1NC(=O)c1ccco1 | i
O=C(CN(c1ccc(I)cc1)S(=O)(=O)c1ccccc1)NC1CC2CCC1C2 (stereo unspecified) | i
CCCC(=O)Nc1ccc(S(=O)(=O)N2CCCC2)cc1 | i
CCCc1cc(=O)oc2c(C)c(OCc3cccc(F)c3)ccc12 | 2%
CC(=O)N1CCc2c(sc3nc(N)c(C(=O)NCCc4ccc(F)cc4)c(C(F)(F)F)c23)C1 | i
CC1=CC(c2ccc(Cl)cc2)n2nc(N3C(=O)c4ccccc4C3=O)nc2N1 (stereo unspecified) | i
O=C(CSc1ccccc1[N+](=O)[O-])OC1CCCCC1 | 13%
CCOc1ccc(S(=O)(=O)Nc2ccc(S(=O)(=O)N3CCOCC3)cc2)cc1 | i
NC(=NCCc1c[nH]c2ccccc12)NC(=O)c1ccccc1 | 27%

The list is partial, so the mix of outcomes need not match the whole.
